High-throughput results: PubChem BioAssay, several laboratories
Sa RN4220 lethal: growth inhibition of S. aureus RN4220, primary screen, OD600. 16 h. inhibition, % (no concentration beside the values). 0.33% of 330,000 active;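 active means z-score of -3 or lower and OD600 up to 0.18 on both plates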;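 further: plate controls were untreated cells for no effect and reference antibiotic for full effect; stock transfer was 100 nL into about 80 µL; one replicate is shown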
BJeLR viability: MLPCN primary cell-based screen for lethality selective to Ras in HRASV12 cells | AID 1554, 2009 | 0.17% of 300,000 active | inhibition, % (no concentration beside the values) | BJeLR (HRASV12) viability, CellTiter-Glo ATP luminescence, 48 h; reference of the scale not given here;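 active means replicate mean above 50%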;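 further: 50 nL library stock added to about 25 µL; numbers are from one replicate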
Sa ugtP lethal: growth inhibition of ugtP-null S. aureus, primary screen, RN4220 ugtP deletion, OD600 | 16 h; some inactives read as strong as hits | growth inhibition, % (no concentration beside the values) | AID 1259309, 2017 | 0.54% of 330,000 active;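 active means z-score under -3 and OD600 up to 0.15 on both plates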;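 further: plate controls were untreated wells for no effect and antibiotic for full effect; wells of about 80 µL received 100 nL stock; the first replicate is given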
Autofluor counter: compound fluorescence in toxin protease inhibitor counterscreen. compound autofluorescence counterscreen, microsphere flow cytometry; hits give high values. fluorescence intensity (no concentration beside the values). 3.1% of 360,000 active;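 active means at least 3 SD above the mean of all compounds, about 16000 in these data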;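 further: 100 nL of 1 mM stock went into each well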
PrP 5UTR inh: inhibition of PrP 5' UTR reporter expression | inhibition, % (concentration not given with the values) | cell-based PrP 5' UTR mRNA reporter, plate reader | AID 488862, 2010 | 0.35% of 340,000 active;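 active means every replicate at 50% or more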;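 further: 0 = median of the neutral control wells; tested in H4 reporter cells; numbers are from one replicate; inactives centre near -14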
Mtb hypoxia inh: PubChem AID 1159583; fluorescence inhibition, % (test concentration not listed); M. tuberculosis hypoxia-regulated fluorescent reporter, fluorescence; 0.1% of 300,000 active;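 active means 35 to 45% if threefold the growth effect, above 45% if 1.5-fold the growth effect; inactive means the rest, general growth blockers included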;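 further: wells of about 50 µL received 100 nL stock; 0% = vehicle wells and 100% = reference inhibitor wells; whole bacteria with a GFP reporter of the hypoxia response; strong numbers were not always called active; many hits fall short of the cut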
Mtb hypoxia inh growth: second read-out of Mtb hypoxia inh, no call of its own (marks repeat the call); growth inhibition, %; measured here: M. tuberculosis growth (absorbance);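 0% = vehicle and 100% = reference antibiotic; read after six days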
Active calls of the source: *; . = no result given.

SMILES | Sa RN4220 lethal | BJeLR viability | Sa ugtP lethal | Autofluor counter | PrP 5UTR inh | Mtb hypoxia inh | Mtb hypoxia inh growth
CCc1ccc(C2C(C#N)=C(N)Oc3cc(N)ccc32)cc1 (stereo not drawn) | 7.7 | -1.4 | 0.9 | 4218 | -16.2 | -2.7 | 4.0
O=C(CNC(=O)c1ccc(Cl)cc1Cl)OCc1cn2cc(Br)ccc2n1 | 2.2 | . | 2.7 | 3780 | -24.6 | 4.5 | 9.8
COC(=O)Cn1c(=O)cnc2ccccc21 | 4.5 | 9.1 | 4.7 | 11099 | -24.9 | 3.2 | 4.6
CCS(=O)(=O)c1ccc2c(c1)N(S(=O)(=O)c1ccc(OC)cc1)CC(C(=O)O)O2 (stereo not drawn) | -0.4 | -11.5 | -2.7 | 3558 | -0.9 | 2.7 | 2.3
COc1ccc(-n2c(CN3CCOCC3)nc3ccccc3c2=O)c(OC)c1 | 4.8 | -9.7 | 7.0 | 3657 | -16.1 | 0.9 | -3.5
N#Cc1c(/N=C/c2ccco2)sc2c1CCCCC2 | . | 3.1 | . | 3225 | -45.1 | . | .
O=C(c1ccc(Cl)c(S(=O)(=O)NCc2ccco2)c1)N1CCN(c2ccc(F)cc2)CC1 | 3.4 | 5.7 | -3.4 | 2926 | -12.5 | . | .
CCOc1ccccc1NC(=O)/C(C#N)=C/c1c(C)nn(-c2ccccc2)c1Cl | 4.0 | 6.1 | -13.1 | 2584 | -6.2 | 5.2 | 6.1
C/C(=N\Nc1nc(-c2cc(C)ccc2C)cs1)c1cc2ccccc2oc1=O | . | -11.6 | . | 2418 | -13.3 | . | .
CCCN1CCC(NC(=S)Nc2cccc(Cl)c2Cl)CC1 | 1.1 | 1.5 | 4.7 | 4733 | -22.0 | 4.3 | -3.0
Cc1nc2nc(SCC(=O)NCCCN3CCCC3)nn2c(C)c1Cc1ccccc1Cl | 0.1 | 4.8 | 2.9 | 7150 | -2.7 | -1.2 | 4.1
Cc1ccc(NC(=O)c2nc[nH]c2C(=O)N(C)Cc2ccccc2)cc1 | 4.1 | . | 1.8 | 4140 | -18.3 | 17.8 | 12.8
O=C(COc1ccccc1)NCC(=O)NN=Cc1ccc(Cl)cc1 | -1.5 | . | 10.5 | . | . | 8.3 | 7.3
CCc1nn(C(C)C(=O)NCc2cccc(OC)c2)c(=O)c2cc3occc3n12 (stereo not drawn) | -0.6 | -3.3 | -7.5 | 5755 | -27.6 | -2.4 | 4.8
O=C(Cn1cnc(S(=O)(=O)N2CCCCC2)c1)Nc1ccc(OC(F)(F)F)cc1 | 8.3 | -9.1 | 3.9 | 4115 | -11.7 | -8.6 | -5.0
CC(C)(C)OC(=O)N1CCC[C@H]1c1nnc(SCc2c(Cl)cccc2Cl)o1 | 0.5 | 6.8 | 12.7 | 4638 | 1.5 | . | .
Cc1nnc(SCC(=O)NCc2ccc(Cl)cc2)[nH]c1=O | -5.5 | 0.8 | 4.7 | 3696 | -9.5 | . | .
CC12C(=O)N(CCC(=O)O)C(=O)C1C1C=CC2C1 (stereo not drawn) | -16.8 | 2.1 | -2.9 | 4066 | -18.1 | 1.3 | -0.9
OC(COc1ccc(Br)cc1)CN1CCN(c2ccccc2)CC1 (stereo not drawn) | 0.8 | -1.2 | 9.9 | 3538 | -19.1 | 12.3 | 14.7
O=C(CSc1nnnn1-c1cccnc1)Nc1ccc(F)cc1F | 7.7 | 3.5 | 12.5 | 4512 | -1.6 | -1.0 | -1.6
Cc1ccc(S(=O)(=O)n2nc(-n3c(C)ccc3C)c3c(F)cccc32)c2ccccc12 | -7.8 | -6.0 | 14.3 | 5678 | . | 12.2 | -1.2
CC(C)CCOP(N)(=O)Oc1ccccc1 (stereo not drawn) | 6.3 | 2.2 | -5.3 | 4123 | -9.5 | 16.7 | 8.1
Cc1ccc(-c2csc3ncnc(N4CCN(Cc5ccccc5)CC4)c23)cc1 | 0.1 | 6.1 | 6.5 | 3139 | -9.5 | 3.6 | -6.9
CCOC(=O)CSc1cccc2cccnc12 | 1.2 | 5.3 | 0.7 | 2798 | -9.0 | . | .
Cc1cc(C)n(-c2nc3ccccc3nc2N2CCN(S(=O)(=O)c3ccc4ccccc4c3)CC2)n1 | -0.7 | -1.4 | -8.6 | 9467 | -18.5 | 5.9 | 8.6
COc1ccc(Cn2cnc([N+](=O)[O-])c2)cc1[N+](=O)[O-] | 2.9 | 0.5 | 1.6 | 3316 | -18.9 | 10.1 | 11.4
S=C(Nc1ccc(Br)cc1Cl)Nn1cnnc1 | 2.4 | -7.8 | 3.4 | 3228 | -12.5 | 9.8 | 2.9
COc1ccccc1C(=O)NNC(=O)CN1C(=O)c2ccccc2C1=O | 2.1 | 6.7 | 8.3 | 5945 | 0.7 | 1.8 | 0.5
NS(=O)(=O)c1ccc(CNC(=O)/C=C/c2cccc([N+](=O)[O-])c2)cc1 | 0.7 | -2.8 | 6.0 | 19057* | -17.4 | -0.5 | -12.1
CC(C)c1ccc(C2NC(=S)NC3=C2C(=O)CC(C)(C)C3)cc1 (stereo not drawn) | 8.1 | -18.2 | 5.7 | 2562 | -14.6 | 1.3 | 13.0
Cc1ccc(/C=C/C(=O)OCn2nnc3ccccc3c2=O)o1 | 1.5 | 22.7 | -9.5 | 4069 | -4.5 | 11.5 | 8.8
COc1n[nH]c(C(=O)Nc2nc3ccccc3s2)c1[N+](=O)[O-] | 33.4 | 1.5 | 11.9 | 2271 | -50.0 | 1.8 | -0.6
O=C1CC(c2ccsc2)c2ccc3ccccc3c2N1 (stereo not drawn) | 7.0 | -9.1 | -0.5 | 4937 | -9.9 | 2.8 | 3.6
O=C1c2ccccc2S(=O)(=O)N1CC1CC(c2ccccc2Cl)=NO1 (stereo not drawn) | . | 6.1 | . | 8238 | -75.7 | . | .
O=C1NCCC/C1=N/Nc1cc(F)ccc1F | . | 0.0 | . | 4491 | -39.0 | . | .
CS(=O)(=O)NN1C(=O)c2ccccc2NC1c1cccc(O)c1 (stereo not drawn) | 5.4 | 15.1 | 0.2 | 4448 | -22.3 | -8.5 | -0.6
Cc1nnc(SCC(=O)c2c(N)n(Cc3ccccc3)c(=O)n(C)c2=O)n1C | 10.7 | 0.8 | -63.1 | 4573 | -6.4 | 2.1 | 7.1
CCCOc1ccc2ccccc2c1C=Nn1c(C)nnc1-n1nc(C)cc1C | 9.5 | . | -2.8 | . | . | 12.3 | 6.9
COc1ccc(C(=O)c2oc3ccccc3c2NC(C)=O)cc1 | 3.9 | -5.9 | 5.0 | 6907 | -35.8 | 5.5 | 8.1
COc1ccc(NS(=O)(=O)c2cc(C(=O)O)ccc2C)cc1 | 0.3 | -3.7 | 2.9 | 6746 | -22.0 | 4.6 | -2.5
O=C(CN1CCCc2ccccc21)NN=Cc1c(O)ccc2ccccc12 | 12.0 | . | 31.4 | . | . | 15.3 | 7.8
Cc1cc(C)cc(C(=O)N2CCCCCC2)c1 | 4.4 | -9.2 | -6.9 | 23038* | 8.3 | 10.0 | 16.5
Cc1cc(C)c(C=NNc2nc3c([nH]2)c(=O)n(C)c(=O)n3C)c(C)c1 | -1.6 | . | -1.7 | 2910 | -34.0 | 3.4 | -3.1
Cc1cc(=O)[nH]c(SC/C=C/c2ccccc2)n1 | 4.0 | -2.0 | 0.7 | 17675* | -10.2 | -2.5 | 2.3
C[C@@H](NC(=O)[C@@H]1Cc2ccccc2CN1C(=O)OC(C)(C)C)C(=O)NC1CCCC1 | -5.4 | -0.1 | -0.4 | 4268 | 0.2 | -6.7 | -4.6

Part of the list above, as labelled records.
> COc1n[nH]c(C(=O)Nc2nc3ccccc3s2)c1[N+](=O)[O-]
  Sa RN4220 lethal: 33.4; BJeLR viability: 1.5; Sa ugtP lethal: 11.9; Autofluor counter: 2271; PrP 5UTR inh: -50.0; Mtb hypoxia inh: 1.8; Mtb hypoxia inh growth: -0.6

> Cc1cc(C)cc(C(=O)N2CCCCCC2)c1
  Sa RN4220 lethal: 4.4; BJeLR viability: -9.2; Sa ugtP lethal: -6.9; Autofluor counter: 23038*; PrP 5UTR inh: 8.3; Mtb hypoxia inh: 10.0; Mtb hypoxia inh growth: 16.5

Further structures
SMILES | Sa RN4220 lethal | BJeLR viability | Sa ugtP lethal | Autofluor counter | PrP 5UTR inh | Mtb hypoxia inh | Mtb hypoxia inh growth
Cn1c2ccccc2c2nnc(SCC(N)=O)nc21 | 7.8 | -1.5 | 17.2 | 2878 | 3.2 | 15.2 | -3.8
COc1ccc(-n2c(=O)[nH]cc(C(=O)Nc3ccccc3)c2=O)cc1 | 2.5 | -5.5 | 10.4 | 4466 | -18.0 | 4.2 | 3.8
CCN(CC)Cc1oc(-c2ccccc2)cc1C(=O)O | 1.7 | 5.8 | 2.9 | 4331 | -22.9 | 13.1 | 9.4
O=C(OCC(=O)N1CCCC1)c1cc(F)c(F)cc1Cl | -3.1 | -5.2 | 10.7 | 5101 | -26.3 | 18.0 | 13.6
O=C(CSc1nccn1-c1ncc(C(F)(F)F)cc1Cl)c1ccc(Br)cc1 | . | 18.7 | . | 2507 | -34.2 | . | .
O=C(Nc1ncn[nH]1)c1cc([N+](=O)[O-])ccc1Cl | 2.0 | -6.9 | 8.3 | 3534 | -20.0 | -2.1 | 3.5
Cn1cc(C(=O)N2CCc3ccccc32)cn1 | 4.6 | 1.9 | 9.1 | 2462 | -18.6 | 3.6 | 11.8
O=C(C1CCN(S(=O)(=O)c2cccc3cccnc23)CC1)N1CCCCC1 | 3.0 | 4.6 | 10.9 | 5134 | -6.4 | 13.5 | 12.2
COc1cccc(-c2cc(C(=O)Nc3cccnc3)no2)c1 | 2.5 | -10.5 | -14.2 | 9214 | -17.1 | 4.8 | 6.5
Cc1ccc(S(=O)(=O)N2CCOC2CNC(=O)C(=O)NCc2cccnc2)cc1 (stereo not drawn) | 5.1 | 6.7 | -1.0 | 6218 | -10.7 | -1.4 | -4.8
CC(C)COC(=O)C1C2C=CC3(CN(C(C)c4ccc(Br)cc4)C(=O)C13)O2 (stereo not drawn) | 11.5 | -13.4 | 6.5 | 5252 | -35.3 | . | .
COc1ccc(N2Cc3ccccc3C2=O)cc1 | 3.4 | 30.9 | -2.4 | 4399 | -15.2 | . | .
N#Cc1ccc(C(=O)Nc2cccc3cccnc23)c(F)c1 | -3.9 | -9.3 | -6.2 | 2161 | -40.5 | 6.4 | 1.8
CN(Cc1ccc(Cl)cc1Cl)C(=O)CNC(=O)c1ccc2c(c1)OCO2 | 1.1 | 0.6 | 9.6 | 6370 | 0.6 | 6.9 | -1.8
CN(C)S(=O)(=O)c1ccc(-c2csc(N/N=C/c3ccc(O)cc3)n2)cc1 | . | 31.8 | . | 4420 | -15.4 | . | .

In a second layout: results already given.
Sequence of screens – Sa RN4220 lethal | BJeLR viability | Sa ugtP lethal | Autofluor counter | PrP 5UTR inh | Mtb hypoxia inh | Mtb hypoxia inh growth
Cn1cc(C(=O)N2CCc3ccccc32)cn1
→ 4.6 | 1.9 | 9.1 | 2462 | -18.6 | 3.6 | 11.8
O=C(C1CCN(S(=O)(=O)c2cccc3cccnc23)CC1)N1CCCCC1
→ 3.0 | 4.6 | 10.9 | 5134 | -6.4 | 13.5 | 12.2

The list goes on:
SMILES | Sa RN4220 lethal | BJeLR viability | Sa ugtP lethal | Autofluor counter | PrP 5UTR inh | Mtb hypoxia inh | Mtb hypoxia inh growth
COc1ccc(C(=O)NN=C(C)CC(=O)Nc2ccccn2)cc1OC | 4.0 | . | 8.6 | . | . | 6.6 | 7.6
COc1ccc(C2C3C(=O)N(C(C)(C)C)C(=O)C3[C@]3(Cc4ccccc4)C(=O)N(c4ccc(C(F)(F)F)cc4)C(=O)N23)cc1 (stereo partly drawn) | 5.8 | . | 4.9 | . | . | -6.1 | 7.2
CCN1CCN(C(=O)c2ccc3c(=O)n(CCc4ccccc4)c(=O)[nH]c3c2)CC1 | 4.2 | 4.4 | 7.9 | 3488 | -24.9 | 10.8 | 4.6
O=C(O)CN1C(=O)S/C(=C\c2cccnc2)C1=O | 8.2 | -1.0 | 2.6 | 4571 | -9.6 | 11.5 | 1.2
CN1CCC(N(C)C(=O)c2cc(-c3ccc(F)cc3)nc3ccccc23)CC1 | -1.6 | . | -3.1 | 3876 | -9.3 | 2.0 | 2.4
O=C(NCCN1CCN(c2ccccc2)CC1)c1cccn2c(=O)c3cc(Cl)ccc3nc12 | 4.1 | -11.4 | -5.2 | 14692 | -27.8 | -2.8 | 14.0
COc1ccc(NC(=O)CSc2nc3ccccc3c(=O)[nH]2)cc1S(N)(=O)=O | -3.8 | . | -2.1 | 6378 | -7.4 | 5.6 | 7.5
COc1ccc(-c2nc(NC(=O)C3CC(=O)N(c4ccc5c(c4)OCCO5)C3)sc2C)cc1 (stereo not drawn) | -9.6 | 19.4 | -16.5 | 2706 | -1.3 | 5.8 | -3.8
